Rango release inh – inhibition of RanGTP-driven Rango-importin beta dissociation; AID 540253; 340,000 tested, 0.071% active; Biochemical FRET Rango-importin beta, RanGTP-induced dissociation; Potency, µM (titrated, usually from 46.1 µM), without a hit: at the highest dose activity change, negative = inhibition; active means falling FRET ratio curve, often poorly fitted, with flat reads before Ran was added; inconclusive means other falling curves, or compound fluorescence or quenching; inactive means flat or rising ratio curve;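 also: potency is read from the fitted curve at half-maximal effect; % of control where 0% means no effect; nearly all actives have a fitted effect of over 45% in size; -100% = wells without RanGTP and RCC1; the record marks most hits as doubtful in a second field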
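Two FRET readings bracket the reaction: one 5 min after compound meets Rango–importin beta, another 45 min after RanGTP-RCC1 (0.6 uM Ran, 0.2 uM RCC1, 2 mM GTP) is added. Only the second defines inhibition.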
Rango complex inh – prevents formation of the Rango-importin beta complex | Q14974 | Rango CFP/YFP FRET sensor + importin beta, 45 min | Potency, µM (top dose mostly 92.2 µM), inactives show top-dose inhibition of complex formation | 340,000 tested, 0.031% active; active = rising FRET ratio curve, often small or poorly fitted; inconclusive = mostly compound fluorescence or quenching in the first reads; inactive = flat curves in all reads;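 also: potency is read from the fitted curve at half-maximal effect; 0% = DMSO wells and 100% = buffer wells lacking importin beta; nearly all actives have a fitted effect of over 15% in size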
Target sequence (Q14974 whole entry, looked up): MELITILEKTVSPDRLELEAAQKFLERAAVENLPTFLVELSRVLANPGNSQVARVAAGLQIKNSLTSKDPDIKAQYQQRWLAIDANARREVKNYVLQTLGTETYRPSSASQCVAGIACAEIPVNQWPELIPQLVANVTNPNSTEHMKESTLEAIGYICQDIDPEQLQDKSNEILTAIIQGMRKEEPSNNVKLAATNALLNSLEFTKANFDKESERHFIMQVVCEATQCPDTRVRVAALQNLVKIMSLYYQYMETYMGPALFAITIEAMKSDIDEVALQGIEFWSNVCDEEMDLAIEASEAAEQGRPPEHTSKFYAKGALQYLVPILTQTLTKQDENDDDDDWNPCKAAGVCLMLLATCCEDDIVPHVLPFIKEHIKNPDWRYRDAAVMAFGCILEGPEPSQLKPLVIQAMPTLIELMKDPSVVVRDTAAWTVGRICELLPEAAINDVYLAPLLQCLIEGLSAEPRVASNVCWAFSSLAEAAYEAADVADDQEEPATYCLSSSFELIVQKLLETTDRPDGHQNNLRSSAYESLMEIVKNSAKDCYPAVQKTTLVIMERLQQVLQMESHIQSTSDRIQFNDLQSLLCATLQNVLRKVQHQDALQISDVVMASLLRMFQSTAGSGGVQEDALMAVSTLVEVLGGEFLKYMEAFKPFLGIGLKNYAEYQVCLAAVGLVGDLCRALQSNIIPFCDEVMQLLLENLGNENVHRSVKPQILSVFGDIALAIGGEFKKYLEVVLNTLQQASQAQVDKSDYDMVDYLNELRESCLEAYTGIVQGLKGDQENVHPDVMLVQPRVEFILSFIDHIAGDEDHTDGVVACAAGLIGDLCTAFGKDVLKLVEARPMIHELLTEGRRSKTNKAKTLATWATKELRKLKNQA
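FRET biosensor Rango (snurportin 1 IBB between N-terminal EYFP and C-terminal Cerulean), 50 nM in PBS/1 mM DTT/0.02% Tween-20/0.1% BSA, preincubated 5 min RT with compound; 0.125 microM importin beta added, 45 min RT, CFP/YFP FRET ratio read.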
miR-21 reporter – miR-21 reporter, rising signal; AID 2288; 340,000 tested, under 10 active; HeLa miR-21 FLuc reporter, luciferase, 48 h; Potency, µM (highest dose often 38.3 µM), for the others: at the top dose reporter change, positive = more light; active = well fitted rising curve with a large enough effect; inconclusive = small, poorly fitted or top-dose-only effect; inactive = no such curve, though single readings can be large or run the other way;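 also: % of control where 0% means no effect; miR-21 action dims this reporter so a rising signal means less miR-21 action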
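HeLa miR-21-FLuc reporter line, endogenous miR-21; 2000 cells/well in DMEM/10% FBS; compound titration up to ~40uM final, 48 h, 37 degree Celsius; luciferase detection reagent, 15 min lysis, CCD luminescence.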
GLA inh pH 4.5 – blocks human alpha-galactosidase A at pH 4.5; 230,000 tested, under 10 active; activity change, negative = inhibition, % at 105 µM; P06280; purified enzyme, 4-MU-alpha-Gal fluorescence, pH 4.5; inconclusive = small, poorly fitted or top-dose-only inhibition, or a rising curve; inactive = flat fitted curve, though single readings scatter; no compound was filed as active;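 also: 0% = full activity with enzyme and -100% = basal without enzyme; dose as in the result columns while the protocol names 77 µM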
An asterisk follows results filed as active; ? = inconclusive; . = no result given; [ ] = remark or other dose. Some of the compounds tested (hit frequency here may not be typical).

| SMILES | Rango release inh | Rango complex inh | miR-21 reporter | GLA inh pH 4.5 |
| --- | --- | --- | --- | --- |
| CC(=O)Cc1nsc(NC(=O)c2cc(-c3cccc(C(F)(F)F)c3)oc2C)n1 | -1% | 3.7% | -5% | -3 |
| C[C@@H]1NS(=O)(=O)[C@H]2C[C@@H]3C=C[C@]2(O3)[C@H]1OC(=O)Nc1ccc(C(F)(F)F)cc1[N+](=O)[O-] | 17% | 2.4% | . | . |
| c1ccc(-c2ccc3c(c2)c2c4n3CCN=C4CCC2)cc1 | -7% | ? | -14% | 4 |
| O=C1CCC(=O)N1CC(=O)N1CCCc2ccccc21 | -1% | 1.4% | -1% | . |
| CC[C@H](C)C(=O)N[C@H]1CCCN1C(=O)/C=C/c1ccccc1 | -12% | 1.7% | . | . |
| O=C(COC(=O)c1ccco1)NNC(=O)c1ccc(Cl)cc1 | -4% | -1.5% | . | . |
| CCNC(=O)C1CCCN1S(=O)(=O)c1ccc(OC)cc1 (stereo not given) | 4% | -3.3% | -6% | 12 |
| O=C(c1ccccc1)n1ccc(-c2cccs2)n1 | 0% | 0.2% | -19% | 3 |
| O=c1[nH]c(CN2CCN(CCO)CC2)nc2ccccc12 | -20% | ? | -5% | 6 |
| O=C(NCc1ccc(F)cc1)C1CCCN(c2nc3ccsc3c(=O)s2)C1 (stereo not given) | 4% | 1.2% | -1% | 15 |
| CCCN(C(=O)CCc1ccc(OC)cc1)c1c(N)n(Cc2ccccc2)c(=O)[nH]c1=O | 9% | -1.5% | . | . |
| CCN(CC)C(=O)Oc1ccc2ccccc2c1Br | 1% | 1.5% | -16% | 3 |
| CCCCN1CCS(=O)(=O)N(Cc2ccccc2Br)CC(C(=O)OC)C1 (stereo not given) | 0% | 0.1% | . | . |
| CCCOc1ccc(-c2nc(-c3ccc(N)cc3)cs2)cc1 | . | . | -46% | 5 |
| CSCC(=O)N1CCCC(N2CCN(c3cccc(C(F)(F)F)c3)CC2)C1 (stereo not given) | 2% | -0.7% | -4% | . |
| C=CCn1c(=N)n(CC(=O)c2ccc(OC)cc2)c2ccccc21 | -1% | -0.4% | -10% | 8 |
| Cc1scc(C(=O)O)c1-c1c(C(=O)O)csc1C | 1% | -1.8% | -2% | 9 |
| CN(Cc1nc2ccccc2c(=O)[nH]1)C(=O)c1ccc(S(=O)(=O)N2CCCC2)cc1 | -7% | 3.3% | . | . |
| CN(C1CCCCC1)S(=O)(=O)c1ccc2c(c1)c(=O)c(C(=O)N1CCc3ccccc3C1)cn2C | 1% | 0.7% | -4% | 8 |
| COc1ccccc1NC(=O)NC(N)=O | 15% | 1.9% | -12% | 8 |
| O=C1CC(c2ccccc2)C(c2ccccc2)=NN1 (stereo not given) | -6% | -1.4% | . | . |
| COc1ccc(CCNC(=O)COC(=O)C2CC2C)cc1OC (stereo not given) | 8% | -1.6% | . | . |
| C=CCn1c(=O)c2ccccc2n2c(SCC(=O)Nc3sc(C)c(CC)c3C(=O)OCC)nnc12 | -2% | 0.0% | -12% | -4 |
| CCOC(=O)c1c(NC(=O)COC(=O)c2ccccn2)sc2c1CCC2 | 19% | -3.2% | -19% | -1 |
| CSc1nc2cc(F)c(F)cc2n1C | 17% | -2.2% | -10% | -9 |
| CCOC(=O)c1oc2nc(C(C)C)c3c(c2c1N)CC(C)(C)OC3 | -2% | -0.1% | -6% | -4 |
| CCC(C)(C)c1ccc(OCC(=O)N(C)C)c(C(C)(C)CC)c1 | 9% | -3.0% | 6% | -11 |
| Cn1c(SCc2ccccc2)nnc1-c1cnccn1 | 1% | ? | -39% | -4 |
| Cc1c(OCC(=O)NCCN2CCOCC2)ccc2c(-c3ccccc3)cc(=O)oc12 | -13% | -4.0% | -1% | . |
| CC(C)(C)NC(=O)Cn1c(SCC(=O)Nc2nccs2)nc2ccccc21 | 0% | ? | -1% | -3 |
| N#Cc1c(N)oc(-c2ccc3c(c2)OCO3)c1-c1ccc2c(c1)OCO2 | ? | ? | -38% | -1 |
| CCCc1nnc(NC(=O)c2ccncc2)s1 | -9% | -3.2% | -8% | 1 |
| COC(=O)CCC(=O)NC(=S)Nc1c(C)cccc1C | 23% | 3.5% | -5% | -10 |
| COc1cc(C(C2C(=O)CC(C)(C)CC2=O)C2C(=O)CC(C)(C)CC2=O)ccc1O | -22% | -4.0% | 0% | . |
| O=C(Nc1nc(-c2ccccn2)cs1)c1cccc(-n2cnnn2)c1 | -29% | 0.6% | ? | -19 |
| O=C(Nc1ccccc1)C(CCCCN1C(=O)c2ccccc2C1=O)N1C(=O)c2ccccc2C1=O (stereo not given) | 9% | -2.8% | . | . |
| CCCNC(=O)COc1ccccc1[N+](=O)[O-] | -7% | -1.8% | -36% | -19 |
| O=C(NCc1ccc(F)cc1)C1CCN(S(=O)(=O)N2CCCC2)CC1 | -5% | -3.4% | 1% | 1 |
| CN(C)CCCNS(=O)(=O)c1ccc(N2CCN(Cc3ccc4c(c3)OCO4)CC2)c([N+](=O)[O-])c1 | 37% | -0.2% | 19% | . |
| C[N+](C)(C)C/C=C1/COCO1 | -11% | -3.4% | -2% | -2 |
| CC(=O)OC1CSC2c3ccccc3C(=O)N2Cc2sccc21 (stereo not given) | 6% | -4.6% | -6% | -6 |
| CC(C)(C)NS(=O)(=O)c1ccc(NC(=O)C(Sc2ccccc2)c2ccccc2)cc1 (stereo not given) | 10% | 0.6% | 23% | -13 |
| c1ccc(C2NCCn3cccc32)cc1 (stereo not given) | 10% | 2.9% | -3% | -1 |
| NC(=O)c1ccsc1NC(=O)COC(=O)c1nc(Cl)ccc1Cl | 42% | 0.8% | . | . |
| O=C1NNC(c2ccccc2)=N/C1=C\c1ccc(Cl)cc1 | 3% | 0.6% | -11% | -1 |
| COc1ccc(CCNS(=O)(=O)c2ccc3c(c2)n(C)c(=O)c(=O)n3C)cc1OC | 7% | 2.2% | -2% | 5 |
| O=S(=O)(c1ccc(F)cc1)N1CCN(CC2CC3C=CC2C3)CC1 (stereo not given) | -6% | -3.0% | 0% | . |
| O=C(c1ccc(Cn2c(=O)[nH]c3ccccc3c2=O)cc1)N1CCN(c2ccccc2)CC1 | 1% | -0.3% | -3% | -9 |
| COc1ccccc1C1C(C(C)=O)=C(O)C(=O)N1c1ccc(O)cc1 (stereo not given) | 16% | -5.0% | -4% | . |
| COc1c(C)cccc1C(=O)NC(=S)Nc1ccc2c(c1)Cc1ccccc1-2 | 0% | -0.6% | -6% | 1 |

(cont.)
| SMILES | Rango release inh | Rango complex inh | miR-21 reporter | GLA inh pH 4.5 |
| --- | --- | --- | --- | --- |
| COCCCNC(=O)CN1C(=O)/C(=C/c2ccccc2C)Sc2ccccc21 | -11% | -3.4% | 0% | -28 |
| O=C(Nc1ccc2c(c1)OCO2)C1(S(=O)(=O)c2ccc(Cl)cc2)CC1 | 6% | 0.5% | -10% | -4 |
| O=C(NC(=S)N(CCO)Cc1ccccc1)c1ccc(S(=O)(=O)N2CCCC2)cc1 | 1% | -0.2% | 0% | -5 |
| Oc1ccc(O)c(-c2cnns2)c1 | -8% | -0.6% | -1% | -8 |
| Cc1ccc(C(=O)Nc2cc3c(cc2Cl)OCCCO3)cc1 | -1% | 1.3% | -61% | 0 |
| O=C(OCC(=O)c1ccc(Cl)s1)c1ccccn1 | -5% | 2.9% | -3% | -1 |
| CCc1c(C)sc(NC(=O)c2cc(C)no2)c1C#N | 4% | 0.2% | -26% | -4 |
| COc1ccc(Cc2ccc(OC)c(N)c2)cc1N | -20% | -2.7% | -2% | 1 |
| O=C(COC(=O)c1ccc(NS(=O)(=O)c2ccc3c(c2)OCCO3)cc1)NC1CC1 | 20% | 1.7% | -6% | 4 |
| Cc1ccc(-c2csc3ncnc(N4CCc5ccccc5C4)c23)cc1 | 3% | 0.3% | -6% | -20 |
| CN(C(=O)c1cccc(NC(=O)Cc2ccc(NC(=O)C3CCCN(C(=O)c4ccccc4)C3)cc2)c1)C1CCCCC1 (stereo not given) | 11% | 1.7% | . | . |
| COc1ccccc1NS(=O)(=O)c1cccc(C(=O)NN=C2CCCCCC2)c1 | -9% | -3.3% | -8% | -4 |
| CC1=C(C(=O)OCC2CCCO2)C(c2cccc(C(F)(F)F)c2)C2=C(CC(c3ccco3)CC2=O)N1 (stereo not given) | -18% | ? | 17% | 7 |
| NS(=O)(=O)c1ccc(CCNC(=O)CC(c2ccccc2)c2ccccc2)cc1 | -1% | -2.4% | 15% | . |
| N#Cc1ccccc1NC(=O)CSc1n[nH]c(-c2ccco2)n1 | -10% | -0.6% | 7% | . |
| O=C(Cn1nnc2ccccc2c1=O)NCC1CCC(C(=O)O)CC1 (stereo not given) | -5% | 5.6% | 1% | -2 |
| O=C(CSc1nnc(NC(=O)c2ccco2)s1)NCc1ccc2c(c1)OCO2 | 22% | 1.4% | -1% | -3 |
| COC(=O)CCC(=O)NNC(=O)CCCOc1ccc(Cl)cc1Cl | 6% | -2.9% | 5% | -7 |
| CCc1sc(/C=C(/C#N)C(N)=S)cc1[N+](=O)[O-] | 32% | -5.3% | 0% | -4[21.1 µM] |
| O=C(COc1ccc(Cl)cc1)Nc1ccccc1C(=O)NCc1cccnc1 | -5% | -2.6% | -1% | . |
| COC(=O)c1ccccc1S(=O)(=O)N1CCC(C(=O)OC(C)C(=O)Nc2ccccc2OC)CC1 (stereo not given) | ? | 0.7% | . | . |
| COc1cc(OC)cc(-c2cc(N)n(S(=O)(=O)c3cccc4nsnc34)n2)c1 | 28% | -1.9% | -13% | 0 |
| Oc1ccc(Cl)cc1CNc1ccc(Br)cn1 | -4% | -2.9% | -29% | -16 |
| O=C(NNC(=S)Nc1ccc(Br)cc1)c1ccc(N2CCOCC2)c([N+](=O)[O-])c1 | -20% | -1.1% | -26% | -13 |
| CCCCn1c(=O)[nH]c(=O)c2c1ncn2Cc1ccco1 | -8% | -1.5% | -2% | 6 |
| CCOc1ccc(CC(=O)Nc2ccc(S(=O)(=O)N3CCCC3)cc2)cc1 | -2% | -1.7% | 6% | . |
| COc1ccc(-c2n[nH]c(=S)n2-c2ccc(C)cc2)cc1OC | -3% | -6.0% | -23% | . |
| COCc1[nH]c(=S)c(C#N)cc1C(=O)OC | 0% | 0.4% | -2% | 4 |
| COC(=O)c1ccc(Oc2cc(C)nc(Cl)n2)cc1 | -13% | 1.0% | -5% | 9 |
| Nc1c(C(=O)CSc2nnc(Nc3ccc(F)cc3)s2)c(=O)[nH]c(=O)n1C1CC1 | -1% | 5.0% | . | . |
| Nc1cc(=O)[nH]c(SCC(=O)c2ccc(F)cc2)n1 | 10% | 2.5% | -9% | . |
| O=C(Nc1nc(=S)ss1)c1c(F)cccc1F | 1% | -0.1% | -3% | -2 |
| O=C(Nc1cc(C(=O)Nc2ccccc2C(=O)O)cc(C(=O)Nc2ccccc2C(=O)O)c1)c1ccccc1 | 0% | 3.6% | -5% | . |
| CCCN(Cc1ccccc1)C(=S)Nc1ccc(OC(F)F)cc1 | -7% | 0.3% | -5% | -12 |
| O=C(CCNc1ccc(F)cc1)c1cc2ccccc2o1 | -13% | 3.3% | 1% | 1 |
| COc1ccc(CCn2c(-c3ccc(Cl)cc3)n[nH]c2=S)cc1OC | 0% | -0.4% | -2% | -9 |
| CC(C)CNC(=O)COC(=O)c1ccc(F)cc1Cl | 7% | -1.3% | -12% | -4 |
| COc1ccc2c(=O)c3c(=O)n(Cc4ccco4)c(-c4cc(OC)c(OC)c(OC)c4)nc3oc2c1 | 7% | 1.1% | -3% | -1 |
| O=C(O)c1cccc(S(=O)(=O)Nc2ccc3oc(=O)sc3c2)c1 | 13% | 1.3% | -1% | -24 |
| O=C(NC1CCCCCC1)c1ccc(Cl)c(S(=O)(=O)N2CCOCC2)c1 | -9% | 5.4% | -9% | . |
| CCc1ccc(OCC(=O)NCc2ccco2)c(Br)c1 | 0% | 0.0% | -56% | 2 |
| CCCCNC(=O)c1onc(CSc2ccccc2C)c1C(=O)O | 4% | -0.9% | 0% | 15 |
| CCCn1c(C(O)c2ccc(C)cc2)nc2ccccc21 (stereo not given) | 19% | 1.4% | 12% | . |
| COc1cccc(NC(=O)NCCC2=CCCCC2)c1 | -1% | -0.1% | -38% | -8 |
| Cc1cc(Cl)c2oc(C(=O)N(C)CC3CCOCC3)c(C)c2c1 | 20% | -0.3% | -77% | . |
| CCOC(=O)CSc1nnc(C)c(C)n1 | 13% | -4.5% | . | . |
| COc1ccccc1N1CCN(C(=O)C(=O)c2c(C)[nH]c3ccccc23)CC1 | 18% | 1.6% | 2% | . |
